Rango-impB inh: inhibitors of Rango-importin beta complex formation; Q14974; Rango CFP/YFP FRET sensor + importin beta, 45 min; Potency, µM (doses to about 92.2 µM), for inactives: at the highest dose inhibition of complex formation; hit rate 0.031% among 340,000; active = rising FRET ratio curve, often small or poorly fitted; inconclusive = mostly compound fluorescence or quenching in the first reads; inactive = flat curves in all reads;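 also: potency is read from the fitted curve at half-maximal effect; 0% = DMSO wells and 100% = buffer wells lacking importin beta; nearly all actives have a fitted effect of over 15% in size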
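FRET biosensor Rango (snurportin 1 IBB between N-terminal EYFP and C-terminal Cerulean), 50 nM in PBS/1 mM DTT/0.02% Tween-20/0.1% BSA, preincubated 5 min RT with compound; 0.125 microM importin beta added, 45 min RT, CFP/YFP FRET ratio read.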
miR-21 FLuc: miR-21 reporter, rising signal; HeLa miR-21 FLuc reporter, luciferase, 48 h; Potency, µM (titrated, usually from 38.3 µM), inactives show top-dose reporter change, positive = more light; 340,000 tested, under 10 active; active = well fitted rising curve with a large enough effect; inconclusive = small, poorly fitted or top-dose-only effect; inactive = no such curve, though single readings can be large or run the other way;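 also: % of control where 0% means no effect; miR-21 action dims this reporter so a rising signal means less miR-21 action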
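Using DMEM plus 10% FBS, HeLa miR-21-FLuc cells are incubated with test compounds (final up to about 40uM) for 48 hours; firefly luciferase signal is then imaged following reagent-mediated lysis.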
GLA inh pH 4.5: alpha-galactosidase A (human) inhibition, pH 4.5; purified enzyme, 4-MU-alpha-Gal fluorescence, pH 4.5; activity change, negative = inhibition, % at 105 µM; 230,000 tested, under 10 active; AID 1467; inconclusive = small, poorly fitted or top-dose-only inhibition, or a rising curve; inactive = flat fitted curve, though single readings scatter; no compound was filed as active;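 also: 0% = full activity with enzyme and -100% = basal without enzyme; dose as in the result columns while the protocol names 77 µM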
Target sequence (P06280 whole entry, looked up): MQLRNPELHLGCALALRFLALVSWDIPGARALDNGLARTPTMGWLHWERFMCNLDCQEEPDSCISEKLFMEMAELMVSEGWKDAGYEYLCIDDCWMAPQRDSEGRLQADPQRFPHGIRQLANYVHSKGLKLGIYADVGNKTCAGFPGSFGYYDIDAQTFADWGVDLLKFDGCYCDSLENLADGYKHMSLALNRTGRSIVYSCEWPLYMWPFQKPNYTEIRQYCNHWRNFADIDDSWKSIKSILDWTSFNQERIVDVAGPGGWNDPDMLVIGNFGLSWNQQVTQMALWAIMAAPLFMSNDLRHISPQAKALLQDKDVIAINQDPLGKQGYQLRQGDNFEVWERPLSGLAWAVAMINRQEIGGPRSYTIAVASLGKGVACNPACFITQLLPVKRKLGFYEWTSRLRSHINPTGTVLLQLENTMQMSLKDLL
Rango release inh: prevents RanGTP from dissociating the Rango-importin beta complex; Biochemical FRET Rango-importin beta, RanGTP-induced dissociation; Potency, µM (top dose mostly 46.1 µM), for inactives: top-dose activity change, negative = inhibition; hit rate 0.071% among 340,000; active means falling FRET ratio curve, often poorly fitted, with flat reads before Ran was added; inconclusive means other falling curves, or compound fluorescence or quenching; inactive means flat or rising ratio curve;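 also: potency is read from the fitted curve at half-maximal effect; % of control where 0% means no effect; nearly all actives have a fitted effect of over 45% in size; -100% = wells without RanGTP and RCC1; the record marks most hits as doubtful in a second field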
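Rango FRET biosensor (snurportin-1 IBB flanked by N-terminal EYFP and C-terminal CFP10) at 0.1 uM, with 0.25 uM importin beta in PBS, 1mM DTT, 0.02% Tween-20, 0.1% BSA. 0.6 uM Ran, 2mM GTP and 0.2 uM RCC1 were then added for 45 min at room temperature. Inhibition read as loss of FRET rise.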
Starred values were filed as active, the others as inactive; ? = inconclusive; . = not tested or not shown. An excerpt; count on the stated rates, not on these rows.

molecule | Rango-impB inh | GLA inh pH 4.5 | miR-21 FLuc | Rango release inh
CN(C)Cc1c(-c2ccc(Cl)cc2)nc2ccc(Cl)cn12 | 3.4% | 5 | -12% | 1%
COCCn1c(C)cc(C(=O)CN2c3cccc4cccc(c34)S2(=O)=O)c1C | 0.2% | . | . | 1%
COc1ccc2oc(C)c(C(=O)c3ccc(C)cc3)c2c1 | 0.3% | . | -23% | -1%
Oc1cc(O)c2c(c1)OC(c1ccc(O)c(O)c1)C(O)C2 (centres undefined) | ? | 7 | . | ?
NS(=O)(=O)c1cccc(NC(=O)CN2C(=O)C(=O)N(Cc3ccccc3)C2=O)c1 | -0.1% | . | . | 10%
Cc1ccc(C)c(S(=O)(=O)N2CCN(c3ncccn3)CC2)c1 | 0.1% | 5 | 8% | ?
COc1ccc(CC(NC(C)=O)C(=O)NC2CCN(S(=O)(=O)c3ccccc3)CC2)cc1OC (centres undefined) | 3.9% | 0 | -2% | 2%
CCCc1nnc(NC(=O)COc2ccc3c(c2)OCO3)s1 | 1.5% | . | -7% | -2%
CCOc1ccc(C2C(C(=O)c3ccc(C)o3)=C(O)C(=O)N2CCCN(CC)CC)cc1 (centres undefined) | -4.0% | 7 | 0% | -11%
COc1ccc(N2CCN(C(=O)c3ccccc3Br)CC2)c([N+](=O)[O-])c1 | 0.3% | -11 | -11% | 1%
COc1ccc(NC(=O)CN(c2ccc(OC)c(Cl)c2)S(=O)(=O)c2ccccc2)cc1 | -2.1% | . | -3% | -8%
CCOc1ccccc1/C=C(\C#N)C(=O)Nc1cccc(C(=O)O)c1 | -0.1% | -7 | -9% | -3%
O=C(Nc1nnc(-c2ccccc2)o1)c1cc(Cl)sc1Cl | -1.6% | -2 | -3% | 4%
CC(C)(C)OC(=O)C[C@@H]1C/C=C\C[C@H](CC(=O)NCCO)C(=O)NC[C@H](c2ccccc2)OC1=O | 0.8% | . | . | 1%
O=C(c1ccccc1NS(=O)(=O)c1ccc(Br)s1)N1CCCC1 | -0.6% | -1 | 2% | 6%
CCN(CC)C(=O)CSc1nc2c(sc(=S)n2-c2ccccc2)c(=O)n1Cc1ccco1 | -5.9% | -8 | 20% | 0%
NC(=O)c1ccc(OCc2ccccc2)nc1 | 2.9% | . | . | 15%
CCCCCCC(=O)N/N=C1\CCCc2ccccc21 | -0.3% | -25 | -1% | 5%
CN=C1SC(CC(=O)Nc2cc(Cl)ccc2Cl)C(=O)N1C (centres undefined) | ? | -9 | -6% | -2%
COc1cc(N2C(=O)c3ccccc3C2=O)c(Cl)cc1C(=O)OCC(=O)N(C)C | -0.1% | 3 | 4% | -6%
O=Cc1cn(-c2ccccc2)nc1-c1ccc2c(c1)OCCO2 | -0.5% | 3 | -22% | 0%
Cc1cc(O)c2/c(=N\N)c(-c3csc(C)n3)coc2c1 | ? | 7 | -3% | -25%
Cc1ccc(C)c(NC(=O)COC(=O)CCC(=O)c2cccs2)c1 | -1.0% | 7 | 2% | -8%
COc1cccc(-c2ccc(SCC(=O)c3ccccc3)nn2)c1 | -2.2% | -3 | -40% | -18%
CCOC(=O)Cc1csc(NC(=O)CCCC(=O)O)n1 | -1.2% | -8 | 3% | 1%
COc1cc2c(=O)n(Cc3ccco3)c(=O)n(CC(=O)c3ccc(Br)cc3)c2cc1OC | 0.6% | 1 | 0% | 0%
COc1ccc(S(=O)(=O)N2CCCCC2)cc1NC(=O)C1CSC2(C)CCC(=O)N12 (centres undefined) | 0.1% | . | -3% | -7%
COC(=O)C1CC(=O)N(c2ccc(OCc3ccccc3Cl)cc2)C1 (centres undefined) | -8.2% | . | 1% | 1%
COC(=O)c1c(NC(=O)C2CC2)sc2c1CCCC2 | 3.2% | -8 | -1% | -4%
CCOC(=O)N1CCN(C(=O)c2ccc(Cn3c(=S)[nH]c4cc(C(=O)OC)ccc4c3=O)cc2)CC1 | -0.7% | . | 1% | -10%
N#C/C(C(=O)NCc1ccccc1)=C1/N=C(NC(=O)c2cccs2)c2ccccc21 | ? | 2 | -2% | ?
N#Cc1cc(Br)ccc1N=C1CCCN1c1ccccc1 | 0.8% | 3 | 1% | 0%
COc1cccc(CNC(=O)CN2C(=O)CCSc3ccc(S(=O)(=O)N4CCCC4)cc32)c1 | 2.7% | . | -1% | -13%
CCCNc1c(N)c(=O)oc2ccccc12 | -0.2% | -2 | -12% | -4%
O=C(N/N=C/C=C/c1ccco1)c1cccs1 | -0.7% | -18 | 5% | -12%
Cn1c(SCC(=O)NNC(=O)Cc2ccccc2)nnc1-c1ccccc1 | 3.6% | 0 | -5% | -6%
Cc1[nH]c(=O)[nH]c(=O)c1S(=O)(=O)N1CCC(C(=O)N2CCN(c3cccc(C(F)(F)F)c3)CC2)CC1 | 0.6% | -6 | 3% | -7%
Cc1ccc(CC2CC(=O)N(c3nc4ccccc4s3)C2=O)cc1 (centres undefined) | -0.5% | 6 | -4% | 2%
CSc1ccccc1NS(=O)(=O)c1ccc2c(c1)OCCO2 | -2.5% | -1 | -3% | -13%
Cc1cc(C)cc(NC(=O)CC2Oc3ccc(C)cc3NC2=O)c1 (centres undefined) | -1.6% | . | -2% | 21%
Cc1ccc(/C=N/NC(=O)c2nnn(-c3nonc3N)c2C)o1 | -2.2% | . | -5% | -1%
COC(=O)C/C(N)=C(\C#N)C(=O)OC | ? | -1 | -4% | -9%
CC(C)(CO)NCc1c(OCc2ccc(Cl)cc2)ccc2ccccc12 | 1.2% | . | 10% | -8%
COc1ccc(-c2noc(CN(C(=O)c3ccc4c(c3)OCO4)C(C)C)n2)cc1 | 3.2% | . | 0% | 3%
O=C(CNC(=O)C1COc2ccccc2O1)N/N=C\c1ccccc1Cl (centres undefined) | -6.0% | . | -3% | 1%
Cc1cccc(NC(=O)CS(=O)(=O)Cc2ccccc2)n1 | -0.1% | -6 | -14% | 0%
O=C(NCCCO)c1ccc2[nH]c3ccccc3c2c1 | 0.0% | 3 | -32% | -8%
O=C(COc1ccccc1Cl)NNC(=O)c1cc(S(=O)(=O)N2CCOCC2)ccc1N1CCCC1 | -2.9% | . | -2% | 1%
COc1cc(C(=O)NCCOc2ccccc2C)cc(OC)c1OC | 0.8% | . | -1% | 10%
O=S(=O)(c1cccc(NC(=S)N2CCN(c3ccccc3)CC2)c1)C(F)F | -1.3% | -4 | -5% | ?

Quoted at random: five compounds from above, in no set order.
molecule | Rango-impB inh | GLA inh pH 4.5 | miR-21 FLuc | Rango release inh
O=Cc1cn(-c2ccccc2)nc1-c1ccc2c(c1)OCCO2 | -0.5% | 3 | -22% | 0%
CC(C)(CO)NCc1c(OCc2ccc(Cl)cc2)ccc2ccccc12 | 1.2% | . | 10% | -8%
Cc1ccc(C)c(NC(=O)COC(=O)CCC(=O)c2cccs2)c1 | -1.0% | 7 | 2% | -8%
COc1cccc(-c2ccc(SCC(=O)c3ccccc3)nn2)c1 | -2.2% | -3 | -40% | -18%
O=C(c1ccccc1NS(=O)(=O)c1ccc(Br)s1)N1CCCC1 | -0.6% | -1 | 2% | 6%

(more compounds)
molecule | Rango-impB inh | GLA inh pH 4.5 | miR-21 FLuc | Rango release inh
C/C(=N\Nc1nncc2ccccc12)c1ccc(Cl)c([N+](=O)[O-])c1 | -1.0% | . | -14% | 17%
COc1ccc(S(=O)(=O)NNC(=O)c2ccc([N+](=O)[O-])cc2)cc1 | 5.9% | . | 1% | -11%
Cc1cc(NC(=O)COC(=O)c2cc3c(s2)CCC(C)C3)no1 (centres undefined) | -0.3% | 5 | -3% | 6%
Nc1cc(N)nc(SCC(=O)NCCC2=CCCCC2)n1 | -2.8% | . | . | 1%
CCN1C(=O)/C(=C/c2ccc(OC)c(OC)c2)N=C1SCC(=O)NCc1ccco1 | ? | 2 | ? | ?
Fc1ccc(-n2nnc(-c3cccnc3)n2)cc1 | ? | -7 | -53% | 11%
COc1ccc(CNc2ncccc2[N+](=O)[O-])cc1 | -1.1% | . | -61% | 1%
O=C(c1ccc(C(F)(F)F)cc1)C1CCCN(C(=O)CCN2CCCO2)C1 (centres undefined) | 5.2% | 4 | -4% | -14%
COCc1ccc(C(=O)N2CCCC(N(C)CCc3ccc(OC)c(OC)c3)C2)s1 (centres undefined) | ? | . | -10% | -10%
Cc1cc(C(=O)COC(=O)CN=C2NS(=O)(=O)c3ccccc32)c(C)n1CCc1ccc(Cl)cc1 | 0.2% | -8 | -3% | -1%
Cc1ccc2c(c1)N(CC(=O)N1CCCCC1c1cccnc1)C(=O)CO2 (centres undefined) | -0.6% | 1 | -3% | -3%
COc1ccc(OC)c(-c2nnc3n2N=C(c2ccc(OC(F)F)c(OCC4CC4)c2)CS3)c1 | -3.3% | . | . | 3%
CC(=O)Nc1nc(C(F)(F)F)cs1 | 2.2% | 6 | -3% | -11%
Cc1ccccc1-n1nc(SCC(=O)O)sc1=S | -1.1% | -6 | -1% | -1%
CCc1ccc(/C=N/NC(=O)c2nnn(-c3nonc3N)c2CN2CCc3ccccc32)cc1 | -1.2% | . | 1% | -10%
NC(=O)CS(=O)(=O)c1ccc(Cl)cc1 | 3.1% | 8 | 0% | 5%
CC1CC(C(F)(F)F)n2ncc(C(=O)O)c2N1 (centres undefined) | -0.1% | 2 | -2% | 16%
CCOC1OC2C(CO)OC(n3cnc4c(N)ncnc43)C2O1 (centres undefined) | 2.4% | -5 | -8% | -17%
CCCOc1ccc([C@@H]2C3CN(C(=O)OCC)CC=C3C(C#N)=C(N)C2(C#N)C#N)cc1OC (some centres undefined) | ? | -2 | -7% | -25%
O=C(OCC(=O)N1CCN(S(=O)(=O)c2ccc(Cl)cc2)CC1)c1cc(Br)ccc1O | -1.4% | . | . | 14%
COc1ccc(N2CCN(S(=O)(=O)CCNC(=O)C34CC5CC(CC(C5)C3)C4)CC2)cc1 | -2.7% | . | 9% | 6%
CCOCCCNC(=O)c1cn(C)c2ccc(S(=O)(=O)N3CCCC3)cc2c1=O | -3.1% | . | 2% | -18%
O=C(CN1CCN(CN2C(=O)NC3(CCCCCC3)C2=O)CC1)Nc1cccc(F)c1 | -1.2% | . | . | 0%
Cc1cccc(NC(=O)C2CCCN2C(=O)Oc2ccccc2)c1 (centres undefined) | 2.4% | -10 | 2% | 6%
C1=CC(c2cc3ccccc3o2)OC(CCc2ccccc2)C1 (centres undefined) | -1.7% | . | 0% | -8%
COc1ccc(C)cc1NC(=O)C1CC(=O)N(CCc2ccc(F)cc2)C1 (centres undefined) | -1.0% | . | . | 24%
COc1ccc(OC)c(NC(=S)NN2CCN(C)CC2)c1 | -2.1% | -5 | 4% | -23%
O=C(COc1ccccc1)Nc1cccc(-c2nnc(-c3ccccc3)o2)c1 | -0.6% | 8 | -18% | 3%
CCC(=O)c1cn([C@H](CCC(OC)OC)CC(=O)OC(C)(C)C)cc1CC | -2.1% | . | . | -6%
COc1ccc(-c2nnn(CC(=O)NCc3cccs3)n2)cc1OC | -2.0% | 7 | -1% | 6%

4 compounds from above, sorted by the value under Rango release inh, smallest number first.
molecule | Rango-impB inh | GLA inh pH 4.5 | miR-21 FLuc | Rango release inh
COc1ccc(OC)c(NC(=S)NN2CCN(C)CC2)c1 | -2.1% | -5 | 4% | -23%
CCOCCCNC(=O)c1cn(C)c2ccc(S(=O)(=O)N3CCCC3)cc2c1=O | -3.1% | . | 2% | -18%
C1=CC(c2cc3ccccc3o2)OC(CCc2ccccc2)C1 (centres undefined) | -1.7% | . | 0% | -8%
O=C(CN1CCN(CN2C(=O)NC3(CCCCCC3)C2=O)CC1)Nc1cccc(F)c1 | -1.2% | . | . | 0%

Remaining list, next part
molecule | Rango-impB inh | GLA inh pH 4.5 | miR-21 FLuc | Rango release inh
COCCNC(=O)c1ccc2ccccc2n1 | 1.5% | 4 | -17% | 1%
CCc1ccccc1N(CC(=O)NC(C)(C)C)C(=O)CCC(=O)Nc1ccccn1 | 2.9% | . | 1% | -7%
O=C(Nc1cccnc1)c1cc(-c2cc(Cl)ccc2O)n[nH]1 | 2.7% | 2 | -69% | 0%
Cc1cnc(C(=O)OCC(=O)c2ccc(F)c(F)c2)cn1 | 3.6% | . | . | 0%
COc1ccc2nc(SCc3ccccc3)nc(C)c2c1 | -4.5% | -1 | -88% | -6%

Screening results (PubChem)
